Mtb bLac sens – beta-lactam sensitization of Mtb H37Rv | M. tuberculosis H37Rv growth with meropenem, percent inhibition; hits of this screen are not shown here | inhibition, % at 25 µM | 330,000 compounds, 0.27% hits;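 active means about 74% or more and at least 40 points above the plate without the antibiotic, then above 30% in a dose series; inconclusive means first-round hits that could not be retested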;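 further: growth measured after seven days incubation then overnight dye step; 0% = bacteria only wells and 100% = bacteria with antibiotic; twin plates without the antibiotic show which effects depend on it; some results filed as inactive read as strong as hits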
RecA splice inh – Mtb RecA intein splicing inhibition; AID 2221; cell-free RecA intein splicing, fluorescence; P9WHJ3; 290,000 compounds, 0.75% hits; inhibition, %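 (about 9 µM by stock and volumes)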; in the data active means inhibition above about 30%; inconclusive means no clear call, values can overlap the other calls;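 further: 0% = vehicle wells and 100% = reference inhibitor control wells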
Target sequence (P9WHJ3 whole entry, looked up, canonical isoform): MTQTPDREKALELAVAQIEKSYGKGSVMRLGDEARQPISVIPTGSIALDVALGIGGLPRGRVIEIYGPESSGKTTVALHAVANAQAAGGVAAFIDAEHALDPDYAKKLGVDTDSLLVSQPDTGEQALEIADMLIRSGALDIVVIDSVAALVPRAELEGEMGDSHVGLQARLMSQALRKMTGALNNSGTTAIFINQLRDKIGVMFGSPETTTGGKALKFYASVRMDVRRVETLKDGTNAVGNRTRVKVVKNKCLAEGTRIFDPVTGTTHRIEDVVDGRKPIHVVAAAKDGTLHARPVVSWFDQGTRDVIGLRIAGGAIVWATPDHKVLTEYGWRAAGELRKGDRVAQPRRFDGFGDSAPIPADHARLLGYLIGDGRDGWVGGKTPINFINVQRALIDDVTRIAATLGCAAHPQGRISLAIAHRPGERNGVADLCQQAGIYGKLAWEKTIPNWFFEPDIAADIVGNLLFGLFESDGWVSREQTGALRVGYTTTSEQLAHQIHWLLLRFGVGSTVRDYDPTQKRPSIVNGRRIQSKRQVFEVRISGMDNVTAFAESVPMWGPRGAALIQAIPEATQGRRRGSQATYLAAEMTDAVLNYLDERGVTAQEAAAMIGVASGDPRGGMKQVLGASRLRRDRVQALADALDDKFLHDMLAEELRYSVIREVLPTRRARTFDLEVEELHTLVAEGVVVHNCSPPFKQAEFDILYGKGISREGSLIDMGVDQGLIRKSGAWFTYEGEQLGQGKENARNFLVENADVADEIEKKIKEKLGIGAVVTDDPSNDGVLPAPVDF
Arbovirus anti – antivirals against arbovirus infection | arbovirus infection cell-based antiviral screen | inhibition, % at 10 µM | 200,000 compounds, 0.37% hits | AID 1251;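 active means inhibition from about 30%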;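 further: bluetongue infection of BSR cells; cell survival read as ATP light after 72 h; 0% = infected wells without compound and 100% = uninfected wells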
YopH PTP inh – inhibitors of Yersinia enterocolitica YopH tyrosine phosphatase | fluorescence Ex485/Em525 | AID 898 | 140,000 compounds, 0.16% hits | inhibition, %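 (about 10 µM by stock and volumes)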;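 active means inhibition of 50% or more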;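 further: controls were vehicle for no effect and minimum signal wells for full effect; inactives centre near -20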
Mtb H37Rv – M. tuberculosis H37Rv growth inhibitors, H37Rv strain (AID 1626). M. tuberculosis H37Rv growth inhibition; higher % means a stronger effect. inhibition, % at 10 µM; hits with a dose series show IC50 in µM. 220,000 compounds, 0.95% hits;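 active means confirmed in a dose series; inconclusive means inhibition above 80% but not taken into the dose series; inactive means below 80% or under 30% at every dose of the series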;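 further: bacteria incubated seven days before Alamar blue readout; 0% = bacteria only wells and 100% = bacteria with antibiotic wells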
Arbovirus anti repeat – second read-out of Arbovirus anti, no call of its own (marks repeat the call); inhibition, %; measured here: 10K subset replicate screen; many hits read low in the repeat;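 first of two repeat runs on a subset; 0% = infected and 100% = uninfected wells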
* hit, by the source's call; ? = inconclusive; . = not tested or not shown.

SMILES | Mtb bLac sens | RecA splice inh | Arbovirus anti | YopH PTP inh | Mtb H37Rv | others
COc1ccc(C)cc1S(=O)(=O)N(C)CC(=O)Nc1ccc2c(c1)OCO2 | -10 | 4.2 | -6 | 0 | -10%
Cc1nn(C)c(C)c1CCC(=O)N1CCCC(N2CCN(c3ccc(F)cc3)CC2)C1 (stereo not given) | ? | 0.3 | . | . | .
CCn1c2ccccc2c2cc(NC(C)=O)ccc21 | -1 | -5.8 | 0 | -12 | 5%
CCOC(=O)C1=C(c2ccccc2)NC(SC)=C(C#N)C1c1cccnc1 (stereo not given) | 4 | 0.4 | 5 | -34 | 4%
O=C(NNC1CC(=O)N(c2ccccc2)C1=O)c1ccccc1Cl (stereo not given) | -14 | -2.1 | . | . | -3%
CC(NCc1cccc(S(=O)(=O)N(C)C)c1)c1ccc(F)cc1 (stereo not given) | 2 | 0.0 | . | . | -4%
O=S(=O)(c1cccc(NC(=S)NCc2ccco2)c1)N1CCOCC1 | -4 | 0.2 | 0 | -25 | 1%
COc1ccccc1Nc1nc(N)nc(CN2CCN(c3ccccc3F)CC2)n1 | 90 | 2.6 | -1 | 1 | 40%
CC1(C)CC(=O)C2=C(C1)N(c1ccc(F)cc1)C(=O)CC2c1ccccc1 (stereo not given) | -4 | 1.6 | -2 | -24 | 5%
COc1ccc(C(=O)NCc2cc(C)nc3ccccc23)cc1OC | -6 | -1.7 | 13 | . | -7%
Cc1noc(C)c1CSCC(=O)Oc1ccc(N(C)S(=O)(=O)c2ccccc2)cc1 | -6 | 38* | . | . | .
COc1ccc(-n2c(C)nc3sc4c(c3c2=O)CCC4)cc1 | . | -3.4 | -5 | . | -4%
CCCCN(CC)CCNc1c(N2CCN(C(=O)OCC)CC2)c(=O)c1=O | 1 | 2.8 | 4 | -39 | -8%
Cc1ccc(NC(=O)NCCCN2CCCC2=O)c(C)c1 | -14 | -1.5 | . | . | .
c1ccc(Nc2n[nH]nc2-c2ccccc2)cc1 | -3 | 2.6 | 15 | -14 | -5%
CC(=O)Oc1ccc(C(=O)Nc2cccnc2)cc1 | 3 | 0.5 | . | . | .
O=C(Nc1ccccc1)c1ccc(S(=O)(=O)N(CCO)CCO)cc1 | -7 | 2.8 | 7 | -24 | -7%
CCOC(=O)c1c(C)n(C)c2cc(Br)c(OC)cc12 | -6 | -0.2 | -8 | . | 4%
NC(=O)CN1CCN(S(=O)(=O)c2ccc(Cl)cc2)CC1 | -8 | 0.8 | 8 | . | -4%
CCN1C(=O)/C(=C2\SC(=S)N(NC(=O)c3cccnc3)C2=O)c2ccccc21 | 6 | 0.8 | . | . | .
C(=N\Nc1nc2ccccc2[nH]1)/c1ccncc1 | 2 | -1.7 | 15 | . | 4%
Cc1ccccc1NCC(=O)N/N=C/c1c[nH]c2ccccc12 | -13 | 0.4 | -14 | . | -5%
CC(=O)N[C@@H](Cc1c[nH]c2ccccc12)C(=O)NCCc1ccc(S(N)(=O)=O)cc1 | -5 | 0.0 | . | . | .
COc1cccc(NC(=O)CN(C)C(=O)c2cc(-c3ccco3)nc3ccccc23)c1 | -5 | 2.0 | . | . | .
CCOc1cc(/C=C(/C#N)C(=O)Nc2ccc(O)cc2)cc(Br)c1O | -2 | 60* | -15 | 3 | 1%
O=C1CN(C(=S)Nc2ccc(OC(F)F)cc2)CCN1 | -7 | -2.7 | 2 | . | 6%
Cc1ccc(NC(=O)CN2C(=O)N/C(=C/c3ccc4c(c3)OCCO4)C2=O)cc1 | 3 | -3.2 | . | . | .
CCOC(=O)C1=C(C)C(c2ccccc2OC)NC(=S)N1 (stereo not given) | 2 | 3.3 | -9 | -18 | -5%
CC(CC(=O)NCc1ccc(F)cc1)c1ccccc1 (stereo not given) | 2 | -0.3 | . | . | .
Cc1cc(C(=O)COc2ccccc2[N+](=O)[O-])c(C)n1-c1cccc(S(=O)(=O)N2CCOCC2)c1 | -6 | 1.8 | 11 | -18 | -3%
Cc1nn(CC(=O)N2N=C(C(F)F)CC2(O)C(F)F)c(C)c1[N+](=O)[O-] (stereo not given) | -3 | -0.8 | 3 | -2 | 6%
NC(=O)c1cnn2c(-c3cccc(C(F)(F)F)c3)ccnc12 | -4 | -8.0 | . | . | -2%
O=C(CCCOc1ccc(Br)cc1)NNC(=O)c1ccncc1 | 98 | 8.1 | . | . | .
Nc1nnc(Cc2ccccc2)s1 | -4 | 0.9 | 2 | 8 | -10%
CCCCNc1c(N2CCN(C(=O)OCC)CC2)c(=O)c1=O | 0 | 0.5 | -5 | -14 | 2%
O=[N+]([O-])c1cccc(/C=N/N=C\c2ccccc2)c1 | 5 | 0.7 | . | . | .
COc1cc(OC)cc(C(=O)N2CCC(n3c(C)nc4cc(F)ccc43)CC2)c1 | -16 | -0.2 | 10 | -33 | .
O=C(NCc1ccccc1Cl)c1ccc(-c2ccccc2)cc1 | -3 | -4.4 | -2 | -4 | 12%
CCOc1ccc(N(CC(=O)Nc2ccc(C)c(C)c2)S(=O)(=O)c2c(C)noc2C)cc1 | 0 | 0.6 | 10 | -10 | -2% | Arbovirus anti repeat=-1
Cc1occc1C(=O)N=Nc1c(O)[nH]c2ccc(Br)cc12 | 13 | 1.1 | -17 | -30 | 3%
CCCCCc1nnc(NC(=O)OCCC)s1 | 3 | -1.5 | 2 | -17 | -4% | Arbovirus anti repeat=8
CCOC(=O)CSc1nc(C(C)C)nc2ccccc12 | 2 | 6.6 | 1 | -27 | -1%
CCC(=NCc1ccco1)c1c(C(F)(F)F)[nH]n(-c2nc3ccccc3s2)c1=O | 45 | 3.0 | 16 | -19 | -2%
Cc1[nH]c2ccccc2c1Cc1n[nH]c(=S)n1C | -2 | -0.5 | 3 | -23 | 3%
CCCCCN1CSC(=S)N(Cc2ccccc2)C1 | 99 | 4.9 | -17 | -26 | 6%
O=C(CSc1nnnn1C1CCCC1)Nc1cccc(NC(=O)c2ccco2)c1 | -5 | 1.8 | -2 | -27 | -1%
Cc1cccc(C)c1NC(=O)CCCSc1nnnn1C | 1 | -2.8 | 13 | -12 | -10%
Cc1cc(C)n2c(SCC(=O)NC3CCCCC3C)nnc2n1 (stereo not given) | 5 | -1.9 | 1 | . | 5%
O=Cc1cn(CC(O)Cn2cc(C=O)c3ccccc32)c2ccccc12 | -1 | 1.9 | . | . | .
CC(C)CCNC(=O)C1CCC(=O)N1C(C)C (stereo not given) | -3 | -2.9 | -1 | 10 | -7%

By substructure: the compounds so far containing a cyano group (2)
SMILES | Mtb bLac sens | RecA splice inh | Arbovirus anti | YopH PTP inh | Mtb H37Rv | others
CCOC(=O)C1=C(c2ccccc2)NC(SC)=C(C#N)C1c1cccnc1 (stereo not given) | 4 | 0.4 | 5 | -34 | 4%
CCOc1cc(/C=C(/C#N)C(=O)Nc2ccc(O)cc2)cc(Br)c1O | -2 | 60* | -15 | 3 | 1%

Carrying on.
SMILES | Mtb bLac sens | RecA splice inh | Arbovirus anti | YopH PTP inh | Mtb H37Rv | others
COc1cc(NC(=O)C2CCN(S(=O)(=O)c3cccc4nonc34)CC2)cc(OC)c1 | 21 | 2.0 | 9 | -28 | .
COCCn1c(Sc2nc(C)cs2)nc2c1c(=O)[nH]c(=O)n2C | . | . | 3 | 5 | -9%
CC(C)Oc1ccc(C2(C#N)CC[N+](C)(C)CC2)cc1 | -7 | -6.7 | 8 | -23 | -5%
CCNC(=S)Nc1scc(-c2ccccc2)c1C(=O)OCC | 57 | 4.1 | 3 | -15 | 3%
Cc1ccc(NC(=O)CC(=O)Nc2ccc(C)cc2C)c(C)c1 | 9 | -0.9 | . | . | .
COc1ccc(C2(C)NC(=O)N(CC(=O)c3ccc4c(c3)OCO4)C2=O)cc1 (stereo not given) | -7 | 0.1 | . | . | .
COc1ccccc1NC(=O)C(CC(C)C)NC(=O)C1CCCCC1 (stereo not given) | 6 | 2.1 | -4 | -3 | 1%
O=c1c2c([N+](=O)[O-])cc([N+](=O)[O-])cc2sn1Cc1ccccc1 | 3 | -11 | . | . | .
CC(=O)Nc1ccc(S(=O)(=O)Nc2cc(C)c(-n3nc4ccccc4n3)cc2O)cc1 | 4 | -1.2 | -7 | -21 | -9%
Cc1nnc(SCC(=O)Nc2sccc2C(N)=O)n1Cc1ccccc1 | 1 | -1.9 | 1 | -20 | -2%

Filtered by structure: the compounds so far with bromine (four)
SMILES | Mtb bLac sens | RecA splice inh | Arbovirus anti | YopH PTP inh | Mtb H37Rv | others
CCOC(=O)c1c(C)n(C)c2cc(Br)c(OC)cc12 | -6 | -0.2 | -8 | . | 4%
CCOc1cc(/C=C(/C#N)C(=O)Nc2ccc(O)cc2)cc(Br)c1O | -2 | 60* | -15 | 3 | 1%
O=C(CCCOc1ccc(Br)cc1)NNC(=O)c1ccncc1 | 98 | 8.1 | . | . | .
Cc1occc1C(=O)N=Nc1c(O)[nH]c2ccc(Br)cc12 | 13 | 1.1 | -17 | -30 | 3%

(list continues)
SMILES | Mtb bLac sens | RecA splice inh | Arbovirus anti | YopH PTP inh | Mtb H37Rv | others
S=C(Nc1cccc(Cl)c1Cl)N1CCCC1 | 3 | -1.1 | . | . | .
CC(OC(=O)CNC(=O)C12CC3CC(CC(C3)C1)C2)C(=O)Nc1ccc(S(N)(=O)=O)cc1 (stereo not given) | 0 | 0.8 | 8 | . | -4%
Cc1ccc(C(=O)NNC(=O)c2cccc(S(=O)(=O)N3CCN(c4ccccc4)CC3)c2)cc1 | -4 | -0.5 | -4 | -19 | 2%
Cc1cccc(C(=O)N2CCC(Cc3ccccc3)CC2)c1[N+](=O)[O-] | 8 | 4.3 | 10 | -6 | 2%
N#Cc1cnn(-c2ncnc3sc4c(c23)CCCC4)c1N | 2 | -1.2 | 10 | 2 | 12%
COc1cc(C2NC(=S)NC(c3ccccc3)=C2C(C)=O)cc(Cl)c1OCC(=O)O (stereo not given) | -10 | 0.6 | 0 | -40 | -8%
CC(Oc1ccccc1Cl)c1nnc(N)s1 (stereo not given) | -7 | 5.6 | -3 | 2 | .
C=CCN1C(=O)c2ccccc2NC1c1ccc(Br)s1 (stereo not given) | -6 | 0.1 | . | . | .
CCOc1ccc(N(CC(=O)N2CC=C(c3ccccc3)CC2)S(=O)(=O)c2c(C)noc2C)cc1 | -1 | . | 0 | -43 | -2% | Arbovirus anti repeat=2
CCOCCCNC(=O)c1oc2ccc(S(=O)(=O)N3CCOCC3)cc2c1C | 1 | 0.6 | . | . | .

No new results follow: entries from further up.
SMILES | Mtb bLac sens | RecA splice inh | Arbovirus anti | YopH PTP inh | Mtb H37Rv | others
S=C(Nc1cccc(Cl)c1Cl)N1CCCC1 | 3 | -1.1 | . | . | .
CC(OC(=O)CNC(=O)C12CC3CC(CC(C3)C1)C2)C(=O)Nc1ccc(S(N)(=O)=O)cc1 (stereo not given) | 0 | 0.8 | 8 | . | -4%
Cc1ccc(C(=O)NNC(=O)c2cccc(S(=O)(=O)N3CCN(c4ccccc4)CC3)c2)cc1 | -4 | -0.5 | -4 | -19 | 2%
Cc1cccc(C(=O)N2CCC(Cc3ccccc3)CC2)c1[N+](=O)[O-] | 8 | 4.3 | 10 | -6 | 2%

The list continues:
SMILES | Mtb bLac sens | RecA splice inh | Arbovirus anti | YopH PTP inh | Mtb H37Rv | others
COc1ccc(S(=O)(=O)N2CCCCC2)cc1N(C)S(=O)(=O)c1ccccc1 | ? | 3.9 | . | . | .
Cc1ccc(S(=O)(=O)NCCN(CCNS(=O)(=O)c2ccc(C)cc2)S(C)(=O)=O)cc1 | -4 | -0.1 | -6 | -59 | -10%
CCCCCCOc1ccc(N2C(=O)CC(N3CCN(C(=O)c4ccco4)CC3)C2=O)cc1 (stereo not given) | 7 | 3.8 | -1 | -20 | 7%
COC(=O)N/N=C(\C)c1ccc(C)c([N+](=O)[O-])c1 | 1 | -5.5 | -16 | -33 | 11%
Cc1nn(C(=O)CCC(=O)NCc2ccccc2Cl)c2ccccc12 | 2 | 2.4 | . | . | .
CC(C)(C)c1ccc(/C=C2\SC(=O)N(CCNC(=O)c3cccc(S(=O)(=O)N4CCOCC4)c3)C2=O)cc1 | -14 | 31* | -26 | -17 | -7%
CCCCCCCCn1c2c(c(=N)c3ccccc31)CCC2 | . | 10 | -37 | . | 6.2µM*
CCOC(=O)C1=C(C)N(CCCC(=O)O)C(=O)NC1c1ccc(Cl)cc1Cl (stereo not given) | -8 | -2.9 | . | . | .
C/C(=N\NC(=O)c1nc2ccccn2c1C)c1ccco1 | -2 | . | 1 | . | 5%
C#CCOc1c(Br)cc(/C=C2/C(=O)ON=C2C)cc1OCC | 5 | -5.0 | . | . | .
COc1cc(/C=N\n2cnnc2)ccc1OCC(=O)Nc1ccc(C)cc1 | -10 | 1.3 | 2 | -37 | -7%

Bioassay records (PubChem BioAssay)

Some of the compounds tested; count on the stated rates, not on these rows.
